# S aureus helic: blocks Staphylococcus aureus DNA helicase. AID 485395. purified S. aureus helicase, fluorescence unwinding assay; about half of the hits fall short of the stated cut. inhibition, %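 (tested at about 80 µM)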. 120,000 compounds, 0.05% hits;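 active means both duplicates at 50% or more, or one of them with a favoured structure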;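 further: 0% = mean of negative control wells and 100% = mean of positive control wells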
# MgrA DNA FP: modulators of Staphylococcus aureus MgrA DNA binding. fluorescence polarization. inhibition, %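 (about 10 µg/mL by stock and volumes)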. 84,000 compounds, 0.13% hits. AID 602314;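 active means above 50% in either of two replicates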;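 further: 0% = protein plus DNA without compound and 100% = DNA alone without protein; higher means less MgrA bound to DNA so lower polarization; one replicate is shown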
# * = called active by the depositor; . = no result given.
S aureus helic	MgrA DNA FP	SMILES
-6.0	.	C/C(=N\OCC(=O)N1c2ccccc2CC1C)c1ccc(S(=O)(=O)N(C)C)cc1 (configuration not stated)
8.0	-1.3	CCCN(CCC)S(=O)(=O)c1cc2[nH]c(=O)c(=O)[nH]c2cc1C
.	-1.0	O=C(CSCCS(=O)(=O)c1ccc(Cl)cc1)Nc1ccc(F)c(Cl)c1
-124.0	.	O=c1oc2cc(O)ccc2cc1-c1nc(-c2ccccc2F)no1
12.0	15.2	CCCc1c(C(=O)OCC)sc(N)c1C#N
9.0	.	O=c1c2ccccc2[nH]c2ncccc12
.	-1.0	O=C(NCC1CC1)NC(=O)c1ccccc1F
10.0	.	O=S1(=O)N=C(O)c2ccccc21
15.0	1.8	CC(C)S(=O)(=O)C1=NSC2=NC(=O)/C(=C\c3ccco3)C(=N)N21
10.0	.	O=C(COCc1cc(-c2ccc(F)cc2)on1)NCCC1=CCCCC1
19.0	0.3	CCN(C(=O)CSC1CCCC1)C1CCCCC1
-2.0	.	CCOc1cc(/C=C2/SC(=S)N(C(CC)C(=O)O)C2=O)ccc1O (configuration not stated)
6.0	.	CNc1nc(Cl)nc(Oc2ccc(=O)n(C)n2)n1
26.0	.	OC1(c2ccc(OC(F)F)cc2)CSC(=Nc2cccnc2)N1C1CC1 (configuration not stated)
7.0	-1.7	CC(C)c1ccc(NC(=O)N2CCCC2C(=O)Nc2ccc(-n3cnnn3)cc2)cc1 (configuration not stated)

# Continuation.
S aureus helic	MgrA DNA FP	SMILES
-1.0	.	CN(Cc1ccccc1)c1csc2ccccc2c1=O
5.0	2.5	Cc1cc(C)c2ccc(/C=N/O)nc2c1O
1.0	-1.6	NNC(=O)c1cc(-c2ccccc2)nn1-c1ccccc1
17.0	.	O=C1c2oc3ccccc3c(=O)c2C(c2ccc(Cl)cc2)N1c1ccccn1 (configuration not stated)
.	-2.3	CCOC(=O)C1=C(C)C2C3C(=O)N(c4ccccc4[N+](=O)[O-])C(=O)C3C1(C)C1C(=O)N(c3ccccc3[N+](=O)[O-])C(=O)C21 (configuration not stated)
.	0.5	COc1ccc(OC(=O)c2snnc2C)cc1
22.0	1.6	CC(C)CNc1nc(SCC(N)=O)nc(N2CCOCC2)n1
-2.0	.	COC(=O)CCCc1nc2ccccc2s1
-24.0	.	CC(C)(C)OC(=O)Nc1ccccc1C(=O)O
5.0	.	CC(C)Sc1nc2c(c(=O)[nH]1)C(c1cccs1)C1=C(CC(C)(C)CC1=O)N2 (configuration not stated)
-4.0	-1.5	CC(C)c1c(C#N)c(N)nc(SCC(N)=O)c1C#N
.	0.5	CCOC(=O)/C(N=Nc1ccccc1C)=C(\C)O
17.0	.	COC(=O)COc1cccc2c1OC(C)(C)C2
.	-1.9	O=C(COc1ccc(Cl)cc1Cl)NC1=NCCS1
16.0	13.2	O=C1N/C(=N\O)S/C1=C/c1ccc(O)cc1

# Continued.
S aureus helic	MgrA DNA FP	SMILES
-5.0	.	COC(=O)c1c(NC(=O)CCN2CCOCC2)sc2c1CCCC2
-2.0	.	CCc1ccc(S(=O)(=O)NCc2csc(-c3cccnc3)n2)s1
20.0	.	CN1C(N)=NC(=O)C12COC(c1cccnc1)OC2 (configuration not stated)
14.0	.	N#Cc1ccc(NC(=O)COC(=O)CCc2nc3ccccc3[nH]c2=O)cc1
6.0	.	CCCC(C(=O)Nc1ccc(OCC)cc1)N1Cc2ccccc2C1=O (configuration not stated)
.	2.8	[O-][n+]1onc2c1CCc1c-2nc(-c2ccccc2)n1O
14.0	.	O=C(CSc1ccc(-c2ccncc2)nn1)N1CCCc2ccccc21
-10.0	.	Cc1ccc(CNC(=O)Nc2ccccc2)cc1
-12.0	.	C/C=C(\C(=O)O)c1ccccc1
.	0.4	O=C(O)CCS/C=C/c1ccccc1
4.0	-1.9	CCCCc1cc(CCCC)n2nc(-c3ccccc3)cc2n1
15.0	-1.4	Cc1ccc(NC(=O)/C=C/c2ccc(Br)o2)cc1
6.0	.	O=C1CC(c2ccccc2)n2ncnc2N1 (configuration not stated)
-1.0	.	CC1CCN(C(=O)Cn2ncc3c([nH]c4ccccc43)c2=O)CC1
1.0	.	N#Cc1ccccc1CSCC(=O)N1CCN(c2ccccc2)CC1

# Continued:
S aureus helic	MgrA DNA FP	SMILES
9.0	.	CCc1ccc(-c2cc(C)no2)cc1S(=O)(=O)NCCCN1CCC(C)CC1
22.0	.	O=C(Cn1ncn2c(cc3ccccc32)c1=O)N1CCN(c2ccccc2)CC1
9.0	2.1	CCn1cc(S(=O)(=O)CC(=O)Nc2ccc3c(c2)OCCO3)c2ccccc21
16.0	1.9	O=c1[nH]c(CCl)nc2sc3c(c12)CCCC3
6.0	1.2	COc1cccc(NCCCCO)c1
-23.0	.	COc1ccccc1C(=O)Nc1nc2c(s1)CC(C)CC2 (configuration not stated)
-2.0	0.7	CCc1cc2c(=O)n(Cc3ccco3)c(SCC(=O)NC3CCCC3)nc2s1
-17.0	.	CC(O)CNCc1ccccc1OCc1ccccc1F (configuration not stated)
.	0.5	CC(C)(C)SC(=S)SCC(=O)c1ccc([N+](=O)[O-])cc1
-4.0	.	COc1ccc2nc(N3CCCCC3)[nH]c2c1
5.0	.	CCOC(=O)c1cnc(-c2ccccc2)nc1-c1ccncc1
17.0	2.5	FC(F)(F)c1cccc(N2CCN(Cc3cccs3)CC2)c1
.	3.9	Cc1ccc(C2CC(=O)NC(SCC(=O)Nc3ccc(Br)cc3)=C2C#N)cc1 (configuration not stated)
.	-0.9	Cc1nc(C2COc3ccccc3O2)sc1C(=O)O (configuration not stated)
5.0	-0.2	CC(C)NC(=O)CC1Nc2c3ccccc3nc(=S)n2C1=O (configuration not stated)

# (cont.)
S aureus helic	MgrA DNA FP	SMILES
.	-1.8	COC(=O)c1cc(C(N)=O)c(SC)s1
-1.0	5.2	CCOC(=O)c1cnc(SCC(=O)NCc2ccco2)nc1N
-10.0	.	CCOC(=O)c1sc(SC)c(C#N)c1-c1cccs1
-10.0	.	CCN(CC)S(=O)(=O)c1ccc(N2CC(C(=O)NC3CCCc4ccccc43)CC2=O)cc1 (configuration not stated)
-20.0	.	O=c1c2cncnc2[nH]n1-c1ccccc1
3.0	-0.6	N#Cc1cc2c(nc1SCc1ccncc1)CCCCC2
-17.0	0.7	COc1cc2nc(NC(=O)c3ccc(Cl)cc3)[nH]c(=O)c2cc1OC
22.0	.	CCCNC(=O)CN1C(=O)CSc2ncccc21
24.0	.	Cc1ccc(S(=O)(=O)NNc2ncnc3c(C)csc23)cc1
-12.0	.	Cc1sc2nc(CN3CCOCC3)nc(NCCc3ccc(S(N)(=O)=O)cc3)c2c1C
14.0	-0.9	Cc1ccc(OCC(=O)OCC(N)=O)cc1C
17.0	1.4	c1ccc2[nH]c(C34CC5CC(CC(C5)C3)C4)cc2c1
6.0	1.5	O=C1CCCCC1c1nccc2ccccc12 (configuration not stated)
5.0	.	CC(OC(=O)c1ccc(Cl)c(N)c1)C(=O)Nc1ccc(C(N)=O)cc1 (configuration not stated)
10.0	.	O=C(CSc1nnc(-c2ccccc2)o1)N1CCCCC1

# Not a retest: an excerpt of the list.
S aureus helic	MgrA DNA FP	SMILES
.	-1.8	COC(=O)c1cc(C(N)=O)c(SC)s1
-1.0	5.2	CCOC(=O)c1cnc(SCC(=O)NCc2ccco2)nc1N
-10.0	.	CCOC(=O)c1sc(SC)c(C#N)c1-c1cccs1
-10.0	.	CCN(CC)S(=O)(=O)c1ccc(N2CC(C(=O)NC3CCCc4ccccc43)CC2=O)cc1 (configuration not stated)

# Next records follow:
S aureus helic	MgrA DNA FP	SMILES
.	-3.0	Cc1cc(C)nc(NN2C(=O)/C(=C/c3ccc(N(C)C)cc3)SC2=S)n1
-2.0	-1.1	COc1ccc(/C=C2/Sc3ccc(C(=O)N(C)C4CCCCC4)cc3NC2=O)cc1
-21.0	.	Cc1ccc(C)c(Oc2c(C(F)(F)F)oc3c(CN4CCN(C)CC4)c(O)ccc3c2=O)c1
.	-2.1	CC(=O)Nc1ccc(-c2nc3ccccc3c(=O)[nH]2)cc1
7.0	3.5	COc1cc(C(=O)NCCC(=O)N2CCN(C)CC2)cc(OC)c1OC
3.0	1.4	O=C(O)c1ccc(C(=O)O)c(-c2nc3ccccc3s2)c1
-41.0	.	CN(C)c1ccc(/C=C2\N=C(C(C)(C)C)OC2=O)cc1
15.0	.	CC1CN(C(=O)CCC(=O)N2CCCCC2)c2ccccc2O1 (configuration not stated)
-3.0	1.9	CSc1c(CC(=O)Nc2ccc(C)cc2)[nH]c2ccccc12
.	2.5	CC(C)Nc1cc(C(F)(F)F)nc(-c2ccccn2)n1
14.0	.	Cc1ccc(-n2ncc(C(=O)N3CCOCC3)c2C2CCN(C(=O)OC(C)(C)C)CC2)cc1Cl
3.0	0.7	CCCCn1c(SCC(=O)Nc2ccc(OC)cc2)nc2ccc(N3CCOCC3)cc2c1=O
-19.0	1.8	CCN(CC)C(=O)c1cccc(-c2nnc(-c3ccccc3)o2)c1
7.0	.	CCN(CC)S(=O)(=O)c1ccc2c(c1)nc(CC(=O)O)n2C
8.0	0.3	Cc1nnc(Sc2cc(C(=O)NC3CC3)c3ccccc3n2)s1

# Whole records as entered above. Screens in order: S aureus helic	MgrA DNA FP
# COc1ccc(/C=C2/Sc3ccc(C(=O)N(C)C4CCCCC4)cc3NC2=O)cc1 across the screens: -2.0	-1.1
# Cc1cc(C)nc(NN2C(=O)/C(=C/c3ccc(N(C)C)cc3)SC2=S)n1 across the screens: .	-3.0
# Cc1nnc(Sc2cc(C(=O)NC3CC3)c3ccccc3n2)s1 across the screens: 8.0	0.3

# (continued)
S aureus helic	MgrA DNA FP	SMILES
16.0	-6.2	O=C(O)C1(c2ccccc2)CCCN1 (configuration not stated)
9.0	1.4	c1ccc2c(c1)nc(NC1CCCC1)c1nncn12
-34.0	.	CN(C)S(=O)(=O)c1ccc2nc(NC(=O)c3cccs3)sc2c1
1.0	.	Cc1ccc(N2CC(=O)N(/N=C/c3ccc4c(c3)OCO4)CC2=O)cc1
-18.0	.	CC(C)NC(=O)N(Cc1cccnc1)Cc1cccs1
.	-0.4	Oc1ccc(C2Nc3ccc4ccccc4c3C3C=CCC32)cc1 (configuration not stated)
6.0	.	CC1(C)C/C(=N/NC(N)=S)c2ccoc2C1
6.0	.	CC(C)c1ccccc1NC(=O)COC(=O)Cn1nnc(-c2ccccc2)n1
-7.0	2.0	O=S(=O)(Nc1nc2ccccc2nc1NCCc1ccccc1)c1ccc(Cl)cc1
6.0	.	COC(=O)C(Cc1c[nH]c2ccccc12)NC1OC(=O)c2c1ccc(OC)c2OC (configuration not stated)
.	-2.0	Cc1ccc(S(=O)(=O)N(CCC#N)C2CCCCC2)c2nsnc12
-12.0	.	Cc1cnc(C(=O)NC(c2ccccc2)c2ccccc2)cn1
-14.0	3.5	COC(=O)c1cc(OC)c(OC)cc1NC(=O)c1ccc(-c2ccccc2F)o1
32.0	.	CCc1ccc(OCC(=O)c2c(O)c3ccccc3oc2=O)cc1
-12.0	.	Cc1ccc(-c2nnc3n(Cc4ccc(F)cc4)c(=O)c4ccccc4n23)s1

# Continuation.
S aureus helic	MgrA DNA FP	SMILES
9.0	0.2	O=C(CCN1C(=O)c2ccccc2C1=O)Nc1nncs1
-14.0	-5.0	CC(=O)Nc1scc(C)[n+]1C
.	3.3	Cc1nc(C23CC4CC(CC(C4)C2)C3)[nH]c(=O)c1Cl
9.0	1.1	Cc1cc2ncn(C(=O)c3c(-c4ccccc4Cl)noc3C)c2cc1C
4.0	.	CN(C)C(=O)c1ccc2c(c1)C1C3CCC(C3)C1C(c1ccccc1)N2 (configuration not stated)
8.0	1.6	CCCCC(C(=O)Nc1ccccc1)N1C(=O)c2ccccc2C1=O (configuration not stated)
-14.0	.	CC(C)NC(=O)CSc1nnc(-c2cccnc2)o1
20.0	3.3	Cc1ccc(NC(=O)CCSC2=NCCS2)cc1
38.0	.	CCOc1ccccc1NC(=O)NCCN1CCCc2ccccc21
-10.0	.	O=C(OCc1ncc(-c2ccccc2)o1)c1ccccc1C(=O)c1ccc2c(c1)OCCO2
.	1.2	CCOC(=O)c1cnc2cc(C)nn2c1C
9.0	-3.2	COC(=O)c1csc(N)n1
7.0	.	CCOC(=O)CC1C(=O)NCCN1C(=O)OC(C)(C)C (configuration not stated)
4.0	.	Cc1cc(=S)cc(C)n1C
-5.0	.	CC1Cc2ccccc2N1C(=O)CSc1nc2scc(-c3ccco3)c2c(=O)n1-c1ccccc1 (configuration not stated)

# More results follow.
S aureus helic	MgrA DNA FP	SMILES
-34.0	.	Cc1sc2ncnc(Cl)c2c1C
1.0	-1.5	Cc1ccc2nc(NCc3ccccc3)[nH]c2c1
-10.0	2.2	O=C(CN(Cc1ccccc1Cl)C(=O)c1ccc(CN2CCOCC2)o1)NCc1ccccc1
5.0	9.1	N#CC1=C(N2CCOCC2)c2cc3c(n2C1=N)CCCC3
-3.0	-0.5	COC(=O)C1C(=O)C(C(=O)c2ccccc2)C(=O)CC1(C)C (configuration not stated)
6.0	16.0	COCCn1nnnc1C(C(C)C)N1CCN(C(=O)c2ccco2)CC1 (configuration not stated)
.	-0.3	N#CCNC(=O)c1ccc(Cl)cc1
-8.0	.	Cc1nn(-c2ccccc2)c2c1C(c1ccc(-c3ccc(S(=O)(=O)N4CCOCC4)cc3)o1)C1=C(CC(C)(C)CC1=O)N2 (configuration not stated)
14.0	-2.0	CC1CC(C)(C)NC(=S)N1CCCC(=O)Nc1nc2ccccc2s1 (configuration not stated)
.	-3.5	Cn1c2c(c3ccccc31)C(=O)C(Cn1ccnc1)CC2 (configuration not stated)
14.0	.	CCCN(CC1CC1)c1oc(-c2ccc(F)cc2)nc1C#N
4.0	-0.1	CN1C(=O)c2ccc(NC(=S)NC(=O)C(C)(C)C)cc2C1=O
15.0	-2.1	O=C(Cn1c(C(F)(F)F)nc2ccccc21)NCc1ccco1
.	-2.9	CCOC(=O)C(c1ccccc1)C(Nc1ccccc1)c1ccccn1 (configuration not stated)
10.0	.	CC(C)CCSc1nc2ccccc2n1CC(N)=O
2.0	0.4	CNC(=O)CN(c1cccc(C)c1C)S(=O)(=O)c1ccccc1
6.0	-1.1	O=C(CSc1nncn1-c1ccccc1)Nc1ccccc1

# Assay outcomes (PubChem BioAssay)

# This is a subset. The share of hits here may be higher or lower than overall.
